Mtb hypoxia rep: PubChem AID 1159583; 300,000 compounds, 0.1% hits; M. tuberculosis hypoxia-regulated fluorescent reporter, fluorescence; fluorescence inhibition, % (no concentration beside the values);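 active means 35 to 45% if threefold the growth effect, above 45% if 1.5-fold the growth effect; inactive means the rest, general growth blockers included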;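 further: wells of about 50 µL received 100 nL stock; 0% = vehicle wells and 100% = reference inhibitor wells; whole bacteria with a GFP reporter of the hypoxia response; strong numbers were not always called active; many hits fall short of the cut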
RN4220 kill: growth inhibition of S. aureus RN4220, primary screen, OD600. inhibition, % (test concentration not listed). 16 h. 330,000 compounds, 0.33% hits. AID 1259311, 2017;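 active means z-score of -3 or lower and OD600 up to 0.18 on both plates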;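 further: plate controls were untreated cells for no effect and reference antibiotic for full effect; stock transfer was 100 nL into about 80 µL; one replicate is shown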
Sa ugtP lethal: growth inhibition of ugtP-null S. aureus, primary screen, RN4220 ugtP deletion, OD600. 16 h; some inactives read as strong as hits. growth inhibition, % (no concentration beside the values). 330,000 compounds, 0.54% hits. AID 1259309, 2017;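 active means z-score under -3 and OD600 up to 0.15 on both plates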;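 further: plate controls were untreated wells for no effect and antibiotic for full effect; wells of about 80 µL received 100 nL stock; the first replicate is given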
BJeLR viability: MLPCN primary cell-based screen for lethality selective to Ras in HRASV12 cells; BJeLR (HRASV12) viability, CellTiter-Glo ATP luminescence, 48 h; reference of the scale not given here; inhibition, % (test concentration not listed); 300,000 compounds, 0.17% hits;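 active means replicate mean above 50%; inconclusive means above 50% but judged a plate artefact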;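 further: 50 nL library stock added to about 25 µL; numbers are from one replicate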
PrP UTR inh: inhibition of PrP 5' UTR reporter expression; inhibition, % (concentration not given with the values); cell-based PrP 5' UTR mRNA reporter, plate reader; 340,000 compounds, 0.35% hits;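 active means every replicate at 50% or more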;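 further: 0 = median of the neutral control wells; tested in H4 reporter cells; numbers are from one replicate; inactives centre near -14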
Bead autofluor: flagged as autofluorescent in microsphere protease counterscreen; compound autofluorescence counterscreen, microsphere flow cytometry; active compounds read high; 360,000 compounds, 3.1% hits; AID 624483; fluorescence intensity (no concentration beside the values);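 active means at least 3 SD above the mean of all compounds, about 16000 in these data; inconclusive means too few beads counted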;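 further: 100 nL of 1 mM stock went into each well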
Mtb hypoxia rep growth: second read-out of Mtb hypoxia rep, no call of its own (marks repeat the call); growth inhibition, %; measured here: M. tuberculosis growth (absorbance);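 0% = vehicle and 100% = reference antibiotic; read after six days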
Starred values were filed as active, the others as inactive; u = inconclusive; x = no result given; & = joins results of further samples.

mol	Mtb hypoxia rep	Mtb hypoxia rep growth	RN4220 kill	Sa ugtP lethal	BJeLR viability	PrP UTR inh	Bead autofluor
O=C(CC(C(=O)NCc1ccccc1)c1nc2ccccc2c(=O)[nH]1)NCc1ccccc1 (configuration not stated)	0	-4	3.3	-2	1	-5	3515
O=C(CCCC(=O)NNC(=O)Nc1ccccc1)NNC(=O)Nc1ccccc1	7	-6	3.6	11	-7	-15	4705
CCCOC(=O)c1cccc(NC(=O)c2cccnc2)c1	19	3	-2.5	17	-4	-7	3205
CCN(CC(=O)Nc1ccc(NC(C)=O)cc1)C(=O)c1cc2ccccc2oc1=O	4	3	8.2	5	x	-7	6707
Cc1ccc(NC(=O)C(C)Sc2n[nH]c(CNc3ccccc3)n2)cc1 (configuration not stated)	-10	11	-5.1	4	-1	10	6093
CC(Sc1ccccc1)C(=O)NNC(=O)c1csc(N2CCOCC2)n1 (configuration not stated)	-8	-2	-1.8	0	7	-12	u
CCOc1cc(/C=N/N2CCN(Cc3ccccc3)CC2)ccc1O	x	x	x	x	-2	-17	4030
CC1CCCC(C)N1C(=O)CSc1nnc(-c2ccco2)n1C (configuration not stated)	4	-2	2.3	8	x	-4	3072
Cc1ccc(NC(=S)C2=C(O)c3ccccc3N(C)S2(=O)=O)cc1	12	-1	29	-5	-19	-19	9851
COc1cccc(Cn2cccc(NC(=O)Nc3ccccc3C)c2=O)c1	7	9	-1.2	11	8	-5	4631
O=C(CNS(=O)(=O)N1CCOCC1)N/N=C/c1cccnc1	x	x	x	x	-4	-17	1956
O=C(NCC(=O)N(CC1CCCO1)C(C(=O)NC1CCCCC1)c1ccc(F)cc1)c1ccco1 (configuration not stated)	x	x	-2.9	-4	-8	-4	2372

Filtered by structure: the entries above containing two or more sulfur atoms
mol	Mtb hypoxia rep	Mtb hypoxia rep growth	RN4220 kill	Sa ugtP lethal	BJeLR viability	PrP UTR inh	Bead autofluor
CC(Sc1ccccc1)C(=O)NNC(=O)c1csc(N2CCOCC2)n1 (configuration not stated)	-8	-2	-1.8	0	7	-12	u
Cc1ccc(NC(=S)C2=C(O)c3ccccc3N(C)S2(=O)=O)cc1	12	-1	29	-5	-19	-19	9851

The listing picks up, repeating the 5 entries before the break.
mol	Mtb hypoxia rep	Mtb hypoxia rep growth	RN4220 kill	Sa ugtP lethal	BJeLR viability	PrP UTR inh	Bead autofluor
CC1CCCC(C)N1C(=O)CSc1nnc(-c2ccco2)n1C (configuration not stated)	4	-2	2.3	8	x	-4	3072
Cc1ccc(NC(=S)C2=C(O)c3ccccc3N(C)S2(=O)=O)cc1	12	-1	29	-5	-19	-19	9851
COc1cccc(Cn2cccc(NC(=O)Nc3ccccc3C)c2=O)c1	7	9	-1.2	11	8	-5	4631
O=C(CNS(=O)(=O)N1CCOCC1)N/N=C/c1cccnc1	x	x	x	x	-4	-17	1956
O=C(NCC(=O)N(CC1CCCO1)C(C(=O)NC1CCCCC1)c1ccc(F)cc1)c1ccco1 (configuration not stated)	x	x	-2.9	-4	-8	-4	2372
COc1ccc(N2CC(C(=O)N[C@@H](C)C(=O)N[C@H](CO)c3ccccc3)CC2=O)cc1 (some centres not stated)	x	x	0.6	4	-1	-12	6413
COc1cc(/C=C(\C#N)c2nc3ccccc3n2C)cc(OC)c1O	-2	1	1.7	2	9	-23	4612
CC(C)n1c(O)c(N=NC(=O)Cc2csc(N3CCOCC3)n2)c2ccccc21	3	3	3.6	2	1	-31	4202
CC(NC(=O)COC(=O)Cc1cccs1)c1ccc(F)cc1 (configuration not stated)	1	5	3.4	7	x	-17	4469
Cc1cs/c(=N\N=C\c2cccc([N+](=O)[O-])c2)n1Cc1ccco1	x	x	x	x	-6	-17	2063
CCOc1cc(C=NNC(=O)C2CCCC2)ccc1O	-7	-2	3.6	2	x	x	x
O=C(CCN1C(=O)S/C(=C\c2ccc(F)cc2)C1=O)Nc1ccc(C(=O)O)c(O)c1	x	x	2.4	-5	6	11	4184
c1ccc(CCCN2CCOCC2)cc1	3	10	2.7	-2	-1	-9	3763
Cc1ccc(S(=O)(=O)Cc2csc(N)n2)cc1	3	-3	5.2	0	-14	-81	4183
O=C(CN1CCOCC1)Nc1ccccc1	2	-5	2.2	15	6	-10	4284
COc1ccccc1CNC(=O)CCCn1c(=O)c2ccccc2n(CC(=O)NC2CCCC2)c1=O	x	x	2.9	7	9	-11	4494
O=C(Cc1ccccc1)c1ccccc1C(=O)N1CCCCC1	5	2	6.3	3	-4	-9	4444
CC(=O)N1c2ccc(S(=O)(=O)N3CCCC(C(=O)Nc4cccc(Cl)c4)C3)cc2CC1C (configuration not stated)	1	1	0.9	-1	-9	-11	6552
CC(C)CC(CSc1ccccc1)N1CCN(CC(C)C)CCC1=O (configuration not stated)	20	10	2.8	3	x	x	x
CC1CCC(NC(=O)CNC(=O)c2ccc3ccccc3c2)CC1 (configuration not stated)	-4	6	-0.5	3	-3	-25	5975
O=C(CCCC(=O)OCC(Cl)=C(Cl)Cl)Nc1ccc(F)cc1	3	-4	4.3	10	7	-34	2498
N#Cc1ccc(C(=O)OCC(=O)NC2CCCC2)cc1	10	4	-0.6	-5	-7	-3	2784
N#CCC(=O)Nc1ccc(C(=O)OCC(=O)NCc2ccc3c(c2)OCO3)cc1	9	0	2.4	3	x	-29	7920
Cc1ccc(N(CC(=O)NC(C)c2ccccc2)S(=O)(=O)c2c(C)noc2C)cc1 (configuration not stated)	-10	3	1.0	-5	9	-3	5150
COc1ccc(-c2nc(CSCC(=O)N3CCc4ccccc43)c(C)o2)cc1OC	3	11	0.3	5	1	-20	5390
O=C(C1CCCCC1)N1CCC(c2nc3c(nnn3Cc3c(F)cccc3Cl)c(=O)[nH]2)CC1	11	6	-2.4	34	-1	-17	3479
C/C(=N\NC(=O)c1ccc(C)cc1C)c1ccc2c(c1)Nc1ccccc1S2	x	x	x	x	7	-2	9240
CCN(CC)C(=O)Cn1cnc2sc(C(=O)N3CCN(c4ccc(F)cc4)CC3)c(C)c2c1=O	-11	-14	-0.9	5	-2	-25	3878
CC1CC(C)CN(C(=O)C(C)N2CCN(S(=O)(=O)c3ccc(Br)s3)CC2)C1 (configuration not stated)	12	8	4.8	9	x	-20	3937

More entries
Sequence of screens – Mtb hypoxia rep | Mtb hypoxia rep growth | RN4220 kill | Sa ugtP lethal | BJeLR viability | PrP UTR inh | Bead autofluor
- CC(C)[C@H](NC(=O)c1ccco1)C(=O)OCC(=O)c1ccc(Br)s1
    18 | 8 | 3.8 | 2 | x | -24 | 4190
- Cn1cc(C(=O)c2ccc(Cl)cc2Cl)cc1C(=O)O
    7 | 3 | -0.4 | 1 | -6 | -19 | 3262
- Cc1cc(OC(C)C(=O)N(Cc2ccco2)C2CCS(=O)(=O)C2)cc(C)c1Cl (configuration not stated)
    -4 | -1 | 9.9 | -1 | 5 | -24 | 4524
- Cc1cccc(C)c1NC(=S)NCCCN1CCCC1=O
    11 | 9 | 3.0 | 3 | -5 | 0 | 2009
- Cc1cccc(/N=C2/NC(=O)C(Cc3ccccc3)S2)n1 (configuration not stated)
    -3 | 1 | -2.6 | -9 | 5 | -17 | 4253
- CC(=O)NS(=O)(=O)c1ccc(NC(=O)CSc2ccc(Cl)cc2)cc1
    7 | 5 | 6.9 | 6 | 5 | x | x
- O=C(NCc1ccccc1)c1sc(=S)n2c1[nH]c(=O)c1ccccc12
    2 | 14 | 65 | 28 | 6 | -25 | 9686
- Cc1ccc(S(=O)(=O)N2CCOCC2)cc1C(=O)Nc1nc(-c2ccccn2)cs1
    3 | 3 | 6.0 | 11 | x | 4 | 3317
- CCCNC(=O)c1ccccc1NC(=O)CSCc1ccc(OC)cc1
    14 | 9 | 2.1 | 2 | 4 | -26 | 11284
- CN(NS(=O)(=O)c1ccccc1)C(=O)c1ccccc1
    19 | 10 | 3.1 | -2 | x | -34 | 3986
- C=CCNc1nc(Nc2cc(Cl)ccc2OC)nc(OC)n1
    12 | 6 | 3.2 | -7 | 4 | -7 | 3433
- COCCn1c(SCC(=O)NCc2ccc(F)cc2)nc2ccccc21
    -8 | -20 | 2.5 | 2 | -6 | 1 | 3405
- Cc1noc(NS(=O)(=O)c2ccc(NC(=O)c3ccc(F)cc3)cc2)c1C
    21 | 15 | 2.0 | 4 | x | -31 | 3832
- CCOC(=O)c1[nH]c2c(c1C)C(=O)CC(c1ccc(F)cc1)C2 (configuration not stated)
    x | x | 0.8 | -11 | 32 | 15 | 5748
- O=C(NN=Cc1ccoc1)c1ccccc1Br
    10 | -2 | 3.1 | 1 | x | x | x
- Cc1ccc(C2C(C#N)=C(N)Oc3n[nH]c(-c4ccccc4)c32)o1 (configuration not stated)
    x | x | 6.8 | 10 | -1 | -6 | 2931
- O=C(COC(=O)Cc1ccsc1)NCc1ccccc1
    12 | -4 | 1.4 | 3 | 3 | -3 | 2379
- COCCn1c(SCC(=O)Nc2cc(C)on2)nc2cc(Cl)ccc2c1=O
    2 | 0 | 3.9 | 8 | x | -22 | 3716
- Cc1nn(-c2ccccc2)c2[nH]c(=O)c(CNCCN3CCOCC3)cc12
    x | x | 0.1 | -1 | -6 | -14 | 4491
- S=c1[nH]ncn1/N=C/c1ccccn1
    x | x | x | x | 2 | -24 | 9910
- O=C(Cn1cnc2ccccc21)N/N=C/c1ccccc1
    x | x | x | x | 5 | -15 | 4486
- N#CCCn1cc(/C=N/NC(N)=S)c(-c2ccc(-c3ccccc3)cc2)n1
    x | x | x | x | -8 | -18 | 3614
- CCN1CC2C3C(=O)N(C)C(=O)C3[C@](Cc3ccccc3)(C1=O)N2C(=O)c1ccc(Cl)cc1 (some centres not stated)
    14 | 3 | 4.3 | 3 | x | x | x
- COc1ccc(C(=O)NCCCCCC(=O)O)cc1OC
    12 | 14 | 0.8 | -1 | 0 | -9 | 4392
- CC(=O)c1ccc(NC(=O)c2cccc(NC(=O)c3ccccc3)c2)cc1
    2 | 2 | 1.5 | 1 | -8 | -17 | 3978
- CC(C)(C)CC(=O)NCCCN1CCOCC1
    0 | -4 | -0.6 | 5 | 2 | -20 | 3836
- Cc1ccnc(NC(=O)CCc2c[nH]c3ccccc23)c1
    10 | 0 | 1.6 | -3 | 9 | -35 | 4293
- O=S(NCc1ccco1)C12CC3CC(CC(C3)C1)C2 (configuration not stated)
    9 | 13 | 0.3 | 7 | -2 | -34 | 6768
- CCc1ccc(NS(=O)(=O)c2cc(OC)ccc2OC)cc1
    13 | 1 | 1.5 | 5 | -1 | -14 | 8070
- C#Cc1ccc(C2C=C(C(=O)N3CCN(Cc4ccc5c(c4)OCO5)CC3)OC(OCC)C2CCCO)cc1 (configuration not stated)
    1&10 | 6&5 | -0.1&7.2 | 2&-21 | x | x | x
- O=C(CNC(=S)N(Cc1ccccc1)Cc1cccnc1)N1CCOCC1
    -4 | 2 | 14 | 7 | 6 | -15 | 3272

Outcome played no part in choosing rows; any-hit rate near 4%.
